HSD17B inh: blocks hydroxysteroid 17-beta dehydrogenase activity | 75,000 compounds, 7.6% hits | recombinant HSD17B10, NADH fluorescence kinetic; many of its hits are not listed in these tables | Potency, µM (series often up to 57.1 µM), without a hit: at the highest dose activity change, negative = inhibition, usual class: inhibitors; active = well fitted inhibition curve with a large enough effect; inconclusive = small, poorly fitted or top-dose-only effect; inactive = no such curve, though single readings can be large or run the other way;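 also: the protocol describes HADH2 (HSD17B10) and not the HSD17B4 of the title; nearly all actives have a fitted effect of over 70% in size; most hits overshoot -100% by far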
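Enzyme plus compound, 15 min room temperature; substrate mix added (NAD+ 1 mM, beta-hydroxybutyryl-CoA 90 uM final); plates read kinetically for NADH fluorescence. HADH2 was His-tagged, E. coli-derived, 20 nM.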
Numbers without * were called inactive; u = inconclusive; & = joins results of further samples; [ ] = remark or other dose. % is scaled to controls: 0 for no effect and ±100 for the full control effect; potency is read from the fitted curve at half-maximal effect. A portion of the library, so the mix of outcomes need not match the whole.

SMILES	HSD17B inh
CN(c1ccc(C(=O)NCC2CCCO2)cc1)S(=O)(=O)c1ccccc1 (stereo unspecified)	7%
O=C(CSc1nnc(Cc2ccccc2)n1-c1ccc(F)cc1)N1CCOCC1	9%
Fc1ccc(Nc2nc(Oc3ccc4c(c3)OCO4)nc(N3CCOCC3)n2)c(F)c1	3%
O=C(CCNC(=O)Cn1ccc2ccccc2c1=O)NCCCN1CCN(c2ccc(F)cc2)CC1	-15%
O=C1C(=O)c2ccccc2C(O)=C1C(C1=C(O)c2ccccc2C(=O)C1=O)c1ccc(Cl)cc1	-5%[11.4 µM]
O=C(NCC(=O)N1CCCC1)c1cccs1	6%
Cc1ccc2nsnc2c1S(=O)(=O)N(Cc1ccco1)Cc1cc2cccc(C)c2[nH]c1=O	u
CN(C)c1ccc(NC(=O)CCCc2ccccc2)cc1	-16%
CCN(CC(=O)Nc1ccc2c(c1)OCCO2)Cc1cc(=O)oc2c(C)c(C)ccc12	2%
CC(=O)Nc1ccc(N2CCN(C(=O)c3cccs3)CC2)cc1	-8%
CC(C)CO/N=C1/C[C@@H](O)[C@@H](O)[C@@H]2[C@@H]3C(=O)N([C@@H](C)c4ccccc4)C(=O)[C@H]3CC[C@@H]12	2%[11.4 µM]
O=C1c2ccccc2C(=O)N1CCN1CCCCC1	15%
Cc1cc(=O)cc(C)[nH]1	9%
COC(=O)c1nnn(CC(=O)Nc2ccc(C)c(F)c2)c1C(=O)OC	13%
O=C(O)C1CCCCN1S(=O)(=O)c1ccc(Cl)s1 (stereo unspecified)	0%
CC1(C)CC(=O)C2=C(C1)N1CCCCC1CC2=O (stereo unspecified)	-4%
Cc1ccc(C(=O)CSc2nnc(-c3ccco3)n2Cc2ccccc2)cc1	u
O=C(Nc1ccc2c(c1)OCCO2)c1cnc2n(c1=O)CCS2	-8%
CS(=O)(=O)N(CC(=O)Nc1ccc2c(c1)OCO2)c1ccc(Cl)cc1	-3%
Cc1ccc2nc(NC3=NCN(Cc4ccc5c(c4)OCO5)CN3)nc(C)c2c1	u
CNCCNS(=O)(=O)c1cccc2cnccc12	3%
Nn1c(COc2ccccc2)nnc1SC(F)F	4%
COc1ccc(C2C(C(=O)c3ccco3)=C(O)C(=O)N2Cc2cccnc2)cc1OC (stereo unspecified)	13%
CC(=O)CCC(=O)NCCc1ccccc1F	-7%
Cc1ccc(NC(=O)c2cccc(Cl)c2)nc1	4%

Three successive compounds from above, quoted:
SMILES	HSD17B inh
COc1ccc(C2C(C(=O)c3ccco3)=C(O)C(=O)N2Cc2cccnc2)cc1OC (stereo unspecified)	13%
CC(=O)CCC(=O)NCCc1ccccc1F	-7%
Cc1ccc(NC(=O)c2cccc(Cl)c2)nc1	4%

In the list so far, these contain a thiophene ring, fused or not.
SMILES	HSD17B inh
O=C(NCC(=O)N1CCCC1)c1cccs1	6%
CC(=O)Nc1ccc(N2CCN(C(=O)c3cccs3)CC2)cc1	-8%
O=C(O)C1CCCCN1S(=O)(=O)c1ccc(Cl)s1 (stereo unspecified)	0%

New compounds follow:
SMILES	HSD17B inh
O=C(C1CCCN(S(=O)(=O)c2cccnc2)C1)N1CCn2c1nc1ccccc12 (stereo unspecified)	-3%
Cc1ccc(C)c(NS(=O)(=O)c2c(C)nn(C)c2C)c1	-16%
CN1CCN(Cc2c(O)ccc3occ(C(=O)c4ccccc4)c23)CC1	-3%
O=C(NCC(O)c1ccccc1)c1cccc(S(=O)(=O)N2CCOCC2)c1 (stereo unspecified)	2%
CC(Cc1ccccc1)C(=O)N1CCN(C)CC1 (stereo unspecified)	-7%
CN(C)C(=O)c1ccc(-c2ccc3ncnc(N4CCOCC4)c3c2)cc1	u
Cn1c(=O)c2cc(S(=O)(=O)NCCC(=O)Nc3ccc(Cl)cc3)ccc2n(C)c1=O	-6%
O=C(CN(C(=O)CCC(=O)Nc1ccccn1)c1ccc2c(c1)OCO2)NCc1ccco1	5%
CCn1c(SCC(=O)Nc2cc(C)on2)nnc1-c1ccncc1	4%
COC(=O)CSc1nnc(-c2ccc(S(=O)(=O)NCc3cccs3)cc2)o1	-10%
Cc1ccc(S(=O)(=O)N2CCCSCC2)cc1	6%
Cc1ccc(Cn2c(-c3nonc3N)nc3ccccc32)cc1	-4%
COc1ccc(C)cc1NC(=O)C1CCCCC1C(=O)O (stereo unspecified)	-5%
CCOC(=O)c1c(C2CCN(C(=O)OCC)CC2)nc2ccccn12	5%
O=C(NC1CCCCCCC1)C1CCN(c2nc3ccccc3o2)CC1	0%
Cn1cc(C(=O)N2CCN(C(=O)c3ccco3)CC2)c2c3ccccc3n(C)c2c1=O	32µM*
COc1ccc(NC(=O)NCCCN2CCCC2=O)cc1	12%
CCc1nc(OCc2ccco2)c2sc3nc4c(cc3c2n1)COC(C)(C)C4	20µM*
CC(C)n1c(SC2CCOC2=O)nc2ccccc21 (stereo unspecified)	1%
COc1ccc(C2NC(=O)c3n[nH]c(C)c32)c(OC)c1 (stereo unspecified)	2%
COc1ccc(Cn2nnnc2CN2CCc3ccccc32)cc1	-5%
C=CCN(c1ccc(C(=O)N2CCN(c3ccc(F)cc3)CC2)cc1)S(C)(=O)=O	-7%
COc1cc(-c2c(C#N)c(=O)[nH]c3c2c(C)nn3-c2ccccc2)ccc1O	u
COc1ccc(C(=O)NCCc2ccc(S(N)(=O)=O)cc2)cc1OC	-6%
COc1ncc2nc(-c3ccc(Cl)cc3)c(=O)n(CCC#N)c2n1	3%

Structures shown so far that contain an NH in an aromatic ring, in the order listed:
SMILES	HSD17B inh
Cc1ccc2nsnc2c1S(=O)(=O)N(Cc1ccco1)Cc1cc2cccc(C)c2[nH]c1=O	u
Cc1cc(=O)cc(C)[nH]1	9%
COc1ccc(C2NC(=O)c3n[nH]c(C)c32)c(OC)c1 (stereo unspecified)	2%
COc1cc(-c2c(C#N)c(=O)[nH]c3c2c(C)nn3-c2ccccc2)ccc1O	u

Next structures:
SMILES	HSD17B inh
C=CCn1c(SCC(=O)N2CCOCC2)nc(O)c(Cc2ccccc2)c1=O	-6%
Cc1sc2nc(CSc3nnc(Cc4cccs4)n3C3CCCCC3)[nH]c(=O)c2c1C	-20%
CC(=O)Nc1ccc(-c2cc(NC(C)=O)n(-c3ccccc3)n2)cc1	-7%
O=C(COC(=O)c1ccc2c(c1)OCCO2)NCc1ccccc1	1%
CC(=O)N1CCC(N(CCCOC(C)C)C(=O)Nc2ccc(Cl)cc2)CC1	2%
CCC1=C(OC(=O)N(CC)CC)N2C(=O)OC(=NCC3CC3)[C@]2(C)[C@H]2C1=CC[C@H]1C(=O)NC(=O)[C@H]12	3%
COc1ccccc1CNc1ncncc1-c1cccnc1	u
COC(=O)CSc1nnc(CCc2nc3ccccc3[nH]2)n1C	10%
Cc1cc(C)n(C(=O)c2ccc(C)c(S(=O)(=O)N3CCCC3)c2)n1	8%
COc1ccccc1CNc1ncnc2c1nnn2Cc1ccccc1	-11%
Cc1ccc(S(=O)(=O)c2nc(Nc3nccs3)sc2Cl)cc1	u
CN(C)CCN1C(=O)c2oc3ccccc3c(=O)c2C1c1ccc(F)cc1 (stereo unspecified)	3%
O=C1N/C(=N/c2ccccn2)SC1Cc1ccccc1 (stereo unspecified)	-3%
Cc1nc2cnc(OCc3ccccc3)nc2n(C)c1=O	2%
O=C(Nc1cccc(Cl)c1N1CCCC1)c1cc2ccccc2o1	u
CCOC(=O)/C(C#N)=C1/C=CN(Cc2ccccc2)C=N1	u
Cn1c(NC(=O)c2ccco2)c(-c2ccccc2Cl)c(=O)c2ccccc21	0%
CC(=O)OC1CC[C@]2(C)C(CC(OC(C)=O)[C@@]3(C)C4=CC(=O)OC(c5ccoc5)[C@]4(C)CCC23)C1(C)C (stereo partly specified)	-2%&-2%&-7%
O=S(=O)(Nc1ccc2nc(C(F)(F)F)[nH]c2c1)c1ccccc1	-1%
Cc1cc(=O)[nH]c(SCC(=O)Nc2nc3c(s2)CCCC3)n1	-4%
COc1ccc(-c2cc(C(=O)NCCN3CCOCC3)c3ccccc3n2)c(OC)c1	-16%
CC1CCCCC1N1CCN(C(=O)c2cccc(F)c2)CC1 (stereo unspecified)	9%
CC[C@]1([C@H]2O[C@@H]([C@@H]3O[C@](O)(CO)[C@@H](C)C[C@H]3C)C[C@H]2C)CC[C@@H]([C@]2(C)CC[C@@]3(C[C@@H](O)[C@@H](C)[C@@H]([C@H](C)[C@H](OC)[C@H](C)C(=O)O)O3)O2)O1	0%[25.6 µM]
CN1CCCC2(CCN(S(=O)(=O)c3ccccc3)CC2)C1	7%
Nc1nc2n(n1)C(c1ccco1)CC(c1ccccc1)N2 (stereo unspecified)	3%

The list continues:
SMILES	HSD17B inh
CCOCCCNc1ncc2c(n1)CC(c1ccc(C)cc1)CC2=O (stereo unspecified)	0%
CCOc1ccc2[nH]c(C)c(CN3CCN(CC)CC3)c(=O)c2c1	u
COc1ccc2[nH]c(=O)c(CN(C)C(=O)COc3ccccc3)cc2c1	20µM*
COCCn1c(=O)c(C)nc2cnc(Oc3ccc(OC)cc3)nc21	-1%
Cc1ccc2c(c1)N(CCC(=O)NCc1ccc3c(c1)OCO3)C(=O)CO2	3%
CCOC(=O)c1c(NC(=O)CSc2nnnn2CC)sc(C)c1C	-12%
CC1CN(c2c3c(nc4ncnn24)CCCC3)CC(C)O1 (stereo unspecified)	3%
Cc1noc(C)c1C(=O)NCCC1=CCCCC1	-5%
CCOC(=O)c1[nH]c(C)c(C(=O)Nc2ccc(C)c(Cl)c2)c1C	4%
CCCc1cc(-c2[nH]ncc2-c2ccc(C(=O)OCC)o2)c(O)cc1O	u
C[C@@H](Nc1nc(-c2ccccc2)nc2c1oc1ccccc12)C(=O)O	-5%
O=C(O)Cc1cc2c(s1)CCCCC2	6%
Cn1cccc1Cc1nnc(SCC(=O)Nc2cccc(F)c2)n1-c1ccc(F)cc1	11%
CCOc1ccc(NC(=O)C2CCC(C)(C(=O)O)C2(C)C)cc1 (stereo unspecified)	-2%
OCC1(C2=NOC(O)(C(F)(F)F)C2)CCCCC1 (stereo unspecified)	4%
CC(=O)N1CCN=C1SCc1ccc(Br)cc1	6%
Cc1csc(SCc2c(C(=O)O)oc3ccccc23)n1	2%
Cc1cc(Nc2ccccc2Br)n2nc(C)nc2n1	2%
Cc1ccc(S(=O)(=O)Nn2c(C)ccc2C)cc1	u
CCCCC(=O)NCc1ccc2c(c1)cc(C)n2C	-22%
COc1cc(-c2noc(C3CCCN(S(=O)(=O)c4cccc(Cl)c4)C3)n2)cc(OC)c1OC (stereo unspecified)	-14%
COC(=O)Nc1c(C)n(C)n(-c2ccccc2)c1=O	-2%
Cc1nnc(NC(=O)c2sc3ccccc3c2Cl)s1	-2%
O=c1ccc2cc(S(=O)(=O)N3CCN(c4ccccc4)CC3)ccc2o1	10%
Cc1cccc(-c2nnc3sc(-c4ccccc4C)nn23)c1	-12%

Part of the list above in another layout:
Molecule | HSD17B inh
CN1CCN(Cc2c(O)ccc3occ(C(=O)c4ccccc4)c23)CC1 | -3%
O=C(NCC(O)c1ccccc1)c1cccc(S(=O)(=O)N2CCOCC2)c1 (stereo unspecified) | 2%
CC(Cc1ccccc1)C(=O)N1CCN(C)CC1 (stereo unspecified) | -7%
CN(C)C(=O)c1ccc(-c2ccc3ncnc(N4CCOCC4)c3c2)cc1 | u
Cn1c(=O)c2cc(S(=O)(=O)NCCC(=O)Nc3ccc(Cl)cc3)ccc2n(C)c1=O | -6%
O=C(CN(C(=O)CCC(=O)Nc1ccccn1)c1ccc2c(c1)OCO2)NCc1ccco1 | 5%

Other entries.
SMILES	HSD17B inh
CCOc1ccccc1NC(=O)c1cc(CC(C)C)oc1C	-4%
CC(=O)NCCNc1nc(-c2ccccc2C(F)(F)F)nc2ccccc12	-15%
COC(=O)c1cccc(COC(=O)c2ccccc2NC(=O)c2ccco2)c1	-3%
Clc1ccc2nc3ccccn3c2c1	32µM*
COCCCNC(=O)C1CCN(c2ncccn2)CC1	-20%
COc1ccc(-c2nc(C#N)c(NCc3ccc(C)cc3)o2)cc1OC	32µM*
O=C(Cn1cnc2c(nnn2-c2ccccc2)c1=O)N1CCCc2ccccc21	7%
Cc1ccc(-c2noc(CCC(=O)Nc3ccccc3C)n2)cc1	12%
COC(=O)C1=C(C)N=C2SCCC(=O)N2C1c1cc(Br)ccc1OC (stereo unspecified)	-5%
Cc1ccccc1-c1nc(CN2CCC(C(=O)NCCCN3CC(C)CC(C)C3)CC2)c(C)o1 (stereo unspecified)	14%
CC1(C)CC(=O)C=C(Nc2ccc(OCC(F)(F)C(F)F)cc2)C1	-4%
CCC1CCCCN1C(=O)COC(=O)c1cc2ccccc2cc1O (stereo unspecified)	-6%
Cc1onc(-c2ccccc2Cl)c1C(N)=O	8%
Cc1ccc(C(=O)OCC(=O)Nc2ccccc2)cc1NC(=O)c1ccco1	-11%
COc1ccc(CNC(=O)COC(=O)c2n[nH]c3ccccc23)cc1OC	-17%
Nn1c(SCC(=O)Nc2ccc(S(=O)(=O)N3CCCC3)cc2)nnc1C(F)(F)F	6%
CCn1c(=O)cc(OCC(=O)Nc2nc(C)cs2)c2ccccc21	-1%
O=C(c1cccc(-n2cnnn2)c1)N1CC=C(c2ccccc2)CC1	-2%
COC(=O)c1ccccc1Nc1ccccc1	-5%
COC(=O)[C@H](CCSC)NC(=O)C/C=C\[C@@H](C)CO	5%[11.4 µM]
COCCCn1c(SCC(=O)NC2CCCC2)nnc1-c1ccco1	6%
Cc1ccc(C)c(NC(=O)CC(NCCCN2CCOCC2)C(=O)O)c1 (stereo unspecified)	-3%
CC(=O)N1CCC[C@@]2(CCN(Cc3ccc(C#N)cc3)C2)C1	-1%
COc1ccccc1-c1cncnc1NCc1cccs1	1%
CC1(C)NC(=O)N(CC(O)CN2C(=O)CCC2=O)C1=O (stereo unspecified)	0%
Cn1c(=O)[nH]c2cc3ccccc3cc21	-11%
